MARV entry inh: qHTS for inhibitors of binding or entry into cells for Marburg Virus; Marburg virus pseudotyped entry inhibition, cell reporter; control for the full effect not named in the record; about a third of the inactives were read at about 46 µM; hit rate 1.8% among 300,000; AID 540276, 2011; Potency, µM (doses to about 37.8 µM), inactives show top-dose activity change, negative = inhibition, hits mostly inhibitors; active = well fitted inhibition curve with a large enough effect; inconclusive = small, poorly fitted or top-dose-only effect, or effect the other way; inactive = flat fitted curve, though single readings scatter; tested in HEK293 cells; about a fifth of its hits are not listed in these tables; note: % is set by controls: 0 for no effect and ±100 for the full control effect; luciferase read-out
SARS PLP yeast: qHTS of Yeast-based Assay for SARS-CoV PLP; Potency, µM (doses to about 32.9 µM), inactives show top-dose activity, positive = growth rescue; hit rate 0.19% among 330,000; S. cerevisiae expressing SARS-CoV PLpro, growth rescue; control for the full effect not named in the record; active means well fitted rising curve with a large enough effect; inconclusive means small, poorly fitted or top-dose-only effect; inactive means no such curve, though single readings can be large or run the other way; note: 0% is about no effect; nearly all actives have a fitted effect of over 55% in size; growth read by luminescence after 48 h
Cruzain Triton: qHTS Assay for Promiscuous and Specific Inhibitors of Cruzain (with detergent); purified cruzain, Z-FR-AMC fluorescence, 0.01% Triton; Potency, µM, without a hit: max response, negative = inhibition, usual class: inhibitors; hit rate 0.43% among 200,000;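 note: plate controls were neutral wells for no effect and buffer without enzyme for full effect; nearly all actives have a fitted effect of over 40% in size; top concentration of the series not given in the record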
Target sequence (P25779 123-467 limits assumed): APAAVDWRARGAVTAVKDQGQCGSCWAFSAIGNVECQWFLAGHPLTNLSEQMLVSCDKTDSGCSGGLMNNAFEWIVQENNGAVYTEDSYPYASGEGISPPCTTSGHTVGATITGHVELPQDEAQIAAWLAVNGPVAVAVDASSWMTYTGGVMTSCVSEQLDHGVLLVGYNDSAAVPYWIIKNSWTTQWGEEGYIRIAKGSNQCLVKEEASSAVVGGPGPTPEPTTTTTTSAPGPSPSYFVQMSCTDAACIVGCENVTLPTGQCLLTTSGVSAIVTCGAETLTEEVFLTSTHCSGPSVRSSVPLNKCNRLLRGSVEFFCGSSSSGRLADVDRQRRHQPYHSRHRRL
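Compounds were screened in titration against cruzain (1.5 nM) with 0.01% Triton X-100 to counter colloidal aggregation. Activity was the AMC fluorescence increase over 60 s after adding 2 uM Z-FR-AMC at pH 5.5.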
RE007 growth inh: qHTS Assay for Inhibitors of the HIV-1 protein Vpr; Potency, µM (titrated, usually from 92.2 µM), for inactives: at the highest dose activity change, negative = less growth; S. pombe RE007 Vpr strain, BacTiter-Glo ATP luminescence, 24 h; control for the full effect not named in the record; hit rate 0.21% among 360,000; active = well fitted falling curve with a large enough effect; inconclusive = small, poorly fitted or top-dose-only effect; inactive = no such curve, though single readings can be large or run the other way;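 note: % is set by controls: 0 for no effect and ±100 for the full control effect; nearly all actives have a fitted effect of over 50% in size; the assay follows cell death caused by Vpr and the record does not say whether a fall means rescue or toxicity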
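Fission yeast strain RE007, carrying one chromosomally integrated HIV-1 vpr copy, was seeded at OD 0.01 in PMG+AL medium with 23 nL pinned compound. After 24 h at 30 °C and 99% humidity, viability was read by BacTiter-Glo luminescence.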
2A StopGo: High Throughput Screening for Foot and Mouth Disease Virus Antivirals | Potency, µM (doses to about 57.9 µM), for inactives: at the highest dose signal change, negative = less light | human cells with a luciferase reporter of 2A StopGo recoding; control for the full effect not named in the record | hit rate 1.2% among 410,000; active = well fitted falling curve with a large enough effect; inconclusive = small, poorly fitted or top-dose-only effect; inactive = no such curve, though single readings can be large or run the other way; tested in HEK293T cells; note: % is set by controls: 0 for no effect and ±100 for the full control effect; nearly all actives have a fitted effect of over 45% in size; luciferase light after 4 h
NS1 inh: qHTS Assay for Inhibitors of Influenza NS1 Protein Function; hit rate 0.4% among 270,000; S. cerevisiae slowed by influenza A NS1, growth recovery by OD600; Potency, µM (highest dose often 46.1 µM), for the others: at the highest dose activity, positive = more growth; active means well fitted rising curve with a large enough effect; inconclusive means small, poorly fitted or top-dose-only effect; inactive means no such curve, though single readings can be large or run the other way; note: nearly all actives have a fitted effect of over 50% in size
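Growth recovery, yeast-based: influenza A NS1 expressed in S. cerevisiae causes slow growth, and suppressors are detected by OD600. The parent strain without NS1 is used as positive control.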
LASV entry inh: qHTS for Inhibitors of binding or entry into cells for Lassa Virus | Lassa virus pseudotype entry inhibition, cell reporter; control for the full effect not named in the record | Potency, µM (series often up to 37.9 µM), for the others: at the highest dose activity change, negative = inhibition, most hits filed as inhibitors | hit rate 1.2% among 300,000 | AID 540256, 2011; active means well fitted inhibition curve with a large enough effect; inconclusive means small, poorly fitted or top-dose-only effect, or effect the other way; inactive means flat fitted curve, though single readings scatter; tested in HEK293 cells; note: % is set by controls: 0 for no effect and ±100 for the full control effect; nearly all actives have a fitted effect of over 50% in size; luciferase read-out
Cruzain inh noDet: qHTS Assay for Promiscuous and Specific Inhibitors of Cruzain (without detergent) | purified cruzain, Z-FR-AMC fluorescence, no detergent | hit rate 2.3% among 200,000 | Potency, µM, for inactives: max response, negative = inhibition, hits mostly inhibitors | Cruzipain (Trypanosoma cruzi), P25779 | AID 1476, 2009;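 note: plate controls were enzyme without inhibitor for no effect and buffer without enzyme for full effect; nearly all actives have a fitted effect of over 40% in size; top concentration of the series not given in the record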
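Purified cruzain at 1.5 nM, pre-incubated 15 min with compound at room temperature in 100 mM sodium acetate pH 5.5, 5 mM DTT, 0.00005% Triton X-100. Reaction started with 2 uM Z-FR-AMC; AMC fluorescence increase over 60 s gives rate.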
Starred values were filed as active, the others as inactive; ? = inconclusive; . = no result given; [ ] = dose if it differs, or a comment. Unless noted, calls come from the whole dose curve; as a rule, active = well fitted curve in the direction sought with a large enough effect; inconclusive = small, poorly fitted or top-dose-only effect, or another doubt; inactive = no such curve, though single readings can be large; an effect the other way counts as inactive or inconclusive. Potency is the fitted concentration of half-maximal effect. Compounds as they come. About 4.7% of those tested had a hit in this group.

Fields: MARV entry inh, SARS PLP yeast, Cruzain Triton, RE007 growth inh, 2A StopGo, NS1 inh, LASV entry inh, Cruzain inh noDet
1) Cc1ccc(NCC(=O)N/N=C/c2ccc(OC(=O)c3ccco3)cc2)cc1
  11%, 6%, -2.7%, 11%, ., 7%, -29%, -1%
2) O=C(COC(=O)c1ccco1)NCc1ccccc1Cl
  19%[46.1 µM], -1%, ., -3%, 11%, ., 14%[46.1 µM], .
3) CCOc1ccc(CNS(=O)(=O)c2ccc3c(c2)CC(=O)N3C)cc1
  ., -5%, ., 1%, 0%, 19%, ., .
4) O=C(N/N=C/c1cn(-c2cccs2)nc1-c1ccccc1)c1ccccc1Br
  -28%, -11%, -4.4%, -9%, 17%, 17%, -13%, ?
5) COc1cccc(NC(=O)Nc2nc(SC(C)(C)C)ns2)c1
  ., -4%, ., -12%, -29%, -33%, ., .
6) Cc1ccc(-n2nc(C)c(C3(O)C(=O)N(C(C)C)c4ccccc43)c2N)cc1 (stereo not given)
  ?, 11%, -0.5%, -8%, -11%, -8%, 1%, -11%
7) CCOC(=O)C1(Cc2cccc(OC)c2)CCN(Cc2cnc(SC)nc2)CC1
  0%[46.1 µM], -1%, ., 11%, ?, 4%, -13%, .
8) CC(C)NC(=O)CSc1nnc(-c2ccco2)n1N
  2%, 8%, 7.2%, 20%, 13%, -3%, 21%, -4%
9) COc1ccc(Cl)cc1NC(=O)CN1C(=O)NC2(CCCC2)C1=O
  -2%[46.1 µM], 2%, ., -14%, 14%, -1%, 13%, .
10) N/C(Cc1ccc(Cl)cc1Cl)=N\OC(=O)Cc1ccccc1
  26%, -115%, -4.0%, ., 11%, -34%, 3%, 3%
11) O=C(NCN1CCCCC1)c1cccnc1
  ?, 1%, 2.1%, -6%, -1%, -1%, 0%, -1%
12) CC(C)CNC(=S)N1CCN(C)CC1
  -3%, -1%, 1.5%, -1%, -10%, 5%, -7%, -6%
13) O=C(CN1C(=O)C2CC=CCC2C1=O)NC1=NCCS1 (stereo not given)
  20%, 3%, 0.2%, -6%, 0%, -8%, 14%, 21%
14) CN1CCN(C(=O)C2=C[C@@H](C(C)(C)C)C[C@@H](OCc3ccc(CO)cc3)O2)CC1
  ., 1%, ., -1%, ?, 0%, ., .
15) COc1ccc(N(C)C(=O)CCn2cnc3onc(-c4ccc(F)cc4)c3c2=O)c(OC)c1
  ., ., -6.5%, ., ?, ., -23%[46.1 µM], 25%
16) COc1ccc(Nc2nnc(SCC(=O)N3CCCC3)s2)cc1
  0%[46.1 µM], -1%, -2.0%, -5%, 3%, -5%, -10%, 5%
17) Cc1ccc(-n2c(SCC(=O)NCc3ccco3)nnc2-c2cccnc2)c(C)c1
  -1%, 1%, -4.3%, 1%, 4%, -3%, 0%, 0%
18) O=C(CSc1ncnc2sc3c(c12)CCCC3)c1ccccc1
  -5%, -4%, -5.1%, 13%, -20%, -1%, -6%, -5%
19) COc1ccc2c(c1)C(C)CC(C)(C)N2C(=O)CSc1nc2ccccc2s1 (stereo not given)
  ?, -4%, 0.7%, 15%, ?, 3%, ?, -1%
20) CN(CCC1CCOCC1)C(=O)C1CCC(=O)N(CCc2ccccc2)C1 (stereo not given)
  14%, -1%, ., -13%, -22%, 12%, 5%, .
21) O=C(COc1c(Br)cc(Br)cc1Br)N/N=C/c1ccco1
  ., -3%, ., 9%, -21%, 7%, ., .
22) Cn1c(=O)n(C)c2cc(/C=N/n3cnnc3)ccc21
  -1%, 11%, -4.5%, -5%, 13%, -3%, 1%, -3%
23) COc1ccccc1-c1ccc(SCC(=O)NC2CCCC2)nn1
  -10%, 2%, ., 5%, -2%, ., -1%, .
24) CCc1nnc(NC(=O)C23CC4CC(CC(C4)C2)C3)s1
  ., 2%, ., 2%, 19%, 0%, ., .
25) Cc1ccc(CN2CCSc3ccc(C(=O)NCC(C)c4ccccc4)cc32)cc1 (stereo not given)
  ?, ., -6.0%, ., 25%, ., -21%[46.1 µM], -9%
26) COc1ccc(OC)c(NC(=O)CSc2nc3cccnc3n2C)c1
  ?, 1%, 3.3%, -4%, ?, -9%, -23%, -6%
27) CCCCC(=O)Nc1cccc(-c2cn3ccsc3n2)c1
  ?, -5%, 6.2%, 3%, 19%, -49%, ?, -3%
28) Cn1cccc1/C=C1\SC(=O)N(CC(=O)Nc2ccc(Cl)cc2)C1=O
  -17%, -1%, -3.5%, 5%, ., -2%, 5%, ?
29) CC(c1ccccc1)C1C(C#N)=C(N)OC2=C1C(=O)CC(C)(C)C2 (stereo not given)
  1%, -1%, -1.4%, 17%[3.69 µM], -8%, -43%, -6%, 11%
30) CCOc1cc(C2Nc3cccc4cccc(c34)N2)ccc1O
  ?, -3%, -2.2%, -7%, -12%, 15%, -4%, 16µM*
31) COc1ccc2c(c1OC)C(=O)N1C2SC[C@H]1C(=O)NC1CCCC1 (stereo not given in full)
  ., -1%, ., -7%, -17%, 16%, ., .
32) COc1ccccc1C(=O)NC(=S)N1CCc2ccccc21
  ., -1%, ., -12%, 28%, 8%, ., .
33) CN(Cc1ccccc1)c1nc(CN2CCOCC2)nc2scc(-c3ccccc3)c12
  -13%, 8%, -16%, 17%, ?, -47%, -13%, 3%
34) CCN(CC(=O)Nc1ccc(NC(C)=O)cc1)C(=O)Cc1ccccc1F
  5%[46.1 µM], 2%, ., 2%, 9%, 2%, 5%[46.1 µM], .
35) CCN1C(=O)C(=O)N(CC(=O)Nc2cccc(C(F)(F)F)c2)C1=O
  14%, 1%, ., -12%, -4%, ., 1%, .
36) Cc1cccc(N2CCN(C(=O)CS(=O)(=O)Cc3nc(-c4ccccc4F)oc3C)CC2C)c1 (stereo not given)
  -10%, -3%, -7.2%, 3%, 35µM*, -99%, ., ?
37) CC(C)(C)CN1CCC(Oc2cccc(C(=O)NCCCOc3cccnc3)c2)CC1
  ., ?, ., -8%, 8%, -5%, ., .
38) O=C(Nc1cc(C(F)(F)F)ccc1F)C1CCCCC1
  ?, -4%, 3.5%, 10%, -9%, 4%, 20%, -9%
39) CN=C(NC(=O)Nc1c(C)cccc1C)NC(=O)Nc1c(C)cccc1C
  1%[46.1 µM], -1%, ., 9%, -8%, ., 22%[46.1 µM], .
40) CCCCn1nc2cc(C(=O)NCc3ccc(C(F)(F)F)cc3C(F)(F)F)ccc2c1OCC
  -7%, -4%, -5.6%, 1%, -20%, 10%, ., 8%
41) Clc1ccc(-n2nnc(-c3nccs3)n2)cc1Cl
  ., -5%, ., 5%, 23%, -32%, ., .
42) Cc1c2ccccc2nc2c(F)c(NC(C)C)c(F)c(F)c12
  ?, -38%, -1.5%, 5%, 56%[activator], 8%, 15%, -4%
43) Cc1ccc(OCCC(=O)OC(C)C(=O)NC2CC2)cc1 (stereo not given)
  9%[46.1 µM], 0%, ., 6%, -27%, ., 9%, .
44) Cc1nc(CC(=O)N2CCN(S(=O)(=O)c3ccccc3C#N)CC2)cs1
  4%, -5%, -0.2%, 12%, 20%, 5%, 21%, -1%
45) O=S(=O)(Nc1cccc2c1ccc1cccn12)c1cccs1
  -1%, -6%, -8.5%, 0%, 34%[activator], 21%, 15%, ?
46) Cc1ccc(N(Cc2ccc([N+](=O)[O-])cc2)C(=O)c2ccco2)cc1
  ?, -4%, -2.5%, 34%, 0%, -56%, -2%, -7%
47) CCCCN(Cc1cc2ccccc2[nH]c1=O)S(=O)(=O)c1ccc(C)cc1
  ., -2%, ., 12%, -19%, -5%, ., .
48) CCOc1ccc(C(C)C)cc1S(=O)(=O)N1CCN(C(=O)c2ccco2)CC1
  ., -5%, ., 1%, 66%[activator], 2%, ., .
49) CCc1nnc(SCc2cccc(Cl)c2)c2cc3sccc3n12
  ?, ., -2.1%, ., 13%, ., ., -18%
50) COc1ccc(NS(=O)(=O)c2cccc(Cl)c2Cl)cc1S(=O)(=O)N1CCCCC1
  2%, 15%, -6.1%, 12%, 19%, 2%, 18%, -2%
51) CC1CC(C)CN(CCCNC(=O)Cn2ncc3c(=O)oc4ccccc4c32)C1 (stereo not given)
  0%, 0%, -3.4%, 0%, 0%, 1%, ., -10%
52) CCC(=Nc1ccc(OC)cc1OC)c1c(O)n(C)c(=O)n(C)c1=O
  ?, 1%, -1.8%, -14%, 32µM*, -31%, -17%, 20%
53) O=C(Nc1ccccc1C(=O)Nc1ccccn1)c1cc(F)c(F)cc1Cl
  ., -4%, ., 14%, -18%, -6%, ., .
54) O=C(CSCc1ccc([N+](=O)[O-])cc1)Nc1ccccc1C(=O)O
  -5%[46.1 µM], 0%, ., 7%, 39%[activator], 3%, 14%, .
55) CCCC(=O)c1ccc(N2CCN(C(=O)c3ccc(Br)cc3)CC2)c(F)c1
  -16%, ?, -4.4%, 0%, -3%, 11%, -2%, 3%
56) C/C(=C\C(=O)c1ccccc1)Nc1ccc(Cl)c(Br)c1
  -8%, ., ., -24%, -21%, ., -1%, .
57) CC(C)c1ccc(/C=N/NC(=O)c2nnn(-c3nonc3N)c2CSC2=NCCS2)cc1
  -45%, -21%, -1.5%, -10%, ?, 11%, ?, -25%
58) CCOC(=O)C1CCCN(C(=O)c2ccc([N+](=O)[O-])c(C)c2)C1 (stereo not given)
  7%, 13%, -0.6%, 1%, -21%, -3%, -16%, 4%

Three entries already listed, arranged by heavy-atom count, ascending:
Fields: MARV entry inh, SARS PLP yeast, Cruzain Triton, RE007 growth inh, 2A StopGo, NS1 inh, LASV entry inh, Cruzain inh noDet
53) O=C(Nc1ccccc1C(=O)Nc1ccccn1)c1cc(F)c(F)cc1Cl
  ., -4%, ., 14%, -18%, -6%, ., .
48) CCOc1ccc(C(C)C)cc1S(=O)(=O)N1CCN(C(=O)c2ccco2)CC1
  ., -5%, ., 1%, 66%[activator], 2%, ., .
57) CC(C)c1ccc(/C=N/NC(=O)c2nnn(-c3nonc3N)c2CSC2=NCCS2)cc1
  -45%, -21%, -1.5%, -10%, ?, 11%, ?, -25%
